Source: PubChem
A1 inhib: blocks A1 activity; AID 2241; caspase activation, % (concentration not given with the values); MEF A1-2A-BIM cells, caspase-Glo luminescence, 3 h; percent of clofoctol signal, DMSO as zero; 0.51% of 21,000 active;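 active = most replicate scores above 10, or exactly half above 10 with mean activity above 10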;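 also: effector caspase 3 and 7 activity cleaving a DEVD luciferin substrate; 50 nL library stock added to about 30 µL; numbers are from one replicate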
BJeLR viability: BJeLR cell viability reduction | BJeLR fibroblasts viability, CellTiterGlo ATP luminescence, 48 h; HRASV12, hTERT and SV40 LT/ST transformed | viability loss activity score, % (test concentration not listed) | 0.64% of 30,000 active | AID 2275; in the data active = viability loss activity score above about 50%; about a fifth of its hits are not listed in these tables;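 also: higher score means fewer live cells and less ATP luminescence; stock transfer was 50 or 100 nL into about 30 µL; 0% = vehicle wells and 100% = a reference killing control; one replicate is shown; the record names a cut of 85%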
* = called active by the depositor; / = not tested or not shown. An excerpt; count on the stated rates, not on these rows.

SMILES	A1 inhib	BJeLR viability
CC(C)NC(=O)Nc1cccc2c1O[C@H](CN(C)Cc1ccncc1)[C@@H](C)CN([C@H](C)CO)C2=O	/	-0.3
C=CCNC(=O)c1cc2c(=O)n3cccc(C)c3nc2n(CC2CCCO2)c1=N (stereo unspecified)	0.4	13
C[C@H](CO)N1C[C@H](C)[C@@H](CN(C)Cc2ccc(-c3ccccc3)cc2)Oc2ccc(NC(=O)Nc3ccc(F)cc3)cc2C1=O	-0.4	0.2
COc1c2c(nc3ccccc13)OC(C(C)(O)CO)C2 (stereo unspecified)	0.4	3.5
C[C@@H]1CN([C@H](C)CO)C(=O)c2cccc(NS(=O)(=O)c3cccs3)c2O[C@H]1CN(C)Cc1ccc(Cl)c(Cl)c1	/	-2.7
O=C(NC1CCCCNC1=O)c1cccnc1Oc1ccc(Cl)cc1 (stereo unspecified)	0.4	-0.4
CC(C)NC(=O)N(C)C[C@@H]1Oc2ccc(NS(=O)(=O)c3ccc(Cl)cc3)cc2C(=O)N([C@@H](C)CO)C[C@H]1C	-0.8	1.9
O=C(Nc1ccccc1)Nc1nnc(C(F)(F)F)s1	-3.8	45
C[C@@H]1CN([C@H](C)CO)C(=O)c2cc(NC(=O)CCN3CCOCC3)ccc2O[C@@H]1CN(C)Cc1ccc(Oc2ccccc2)cc1	0.8	0.8
COc1ccc(S(=O)(=O)N(C)C[C@@H]2Oc3ccc(NC(=O)c4ccncc4)cc3C(=O)N([C@H](C)CO)C[C@@H]2C)cc1	0.4	-5.7
C[C@H]1CN([C@@H](C)CO)C(=O)c2cccc(NC(=O)Nc3ccc(F)cc3)c2O[C@H]1CN(C)CC1CCCCC1	/	1.4
FC(F)(F)c1cccc(-c2nc3ccccn3n2)c1	-2.3	-4.3
COc1ccc(NC(=O)Nc2ccc3c(c2)C(=O)N([C@@H](C)CO)C[C@@H](C)[C@@H](CN(C)Cc2ccncc2)O3)cc1	1.0	-3.8
CCc1c(C(=O)c2ccc(OC)cc2)oc2c(C)c3oc(=O)cc(C)c3cc12	-0.8	0.4
CCCNC(=O)c1ccc(-n2c(=S)[nH]c3ccccc3c2=O)cc1	0.6	-3.5
C=C(C(=O)O)[C@H]1C=C2[C@@H](C)[C@@H](O)[C@H](O)C[C@]2(C)CC1	0.3	0.3
COc1ccc(Cl)c(OC)c1C(=O)NC(=O)Nc1c(C)cccc1C	-0.5	-1.4
C[C@@H]1CN([C@@H](C)CO)C(=O)c2cc(NC(=O)C3CC3)ccc2O[C@@H]1CN(C)Cc1ccc(Cl)c(Cl)c1	0.2	-0.7
Cc1nc2c(cnn2-c2ccccc2)c(=O)n1NC(=O)Nc1ccc(Cl)c(Cl)c1	0.8	13
C[C@@H]1CN([C@H](C)CO)C(=O)c2cc(N(C)C)ccc2O[C@H]1CN(C)S(=O)(=O)c1cn(C)cn1	0.1	-0.8

Quoted from the results shown (2 entries):
SMILES	A1 inhib	BJeLR viability
Cc1nc2c(cnn2-c2ccccc2)c(=O)n1NC(=O)Nc1ccc(Cl)c(Cl)c1	0.8	13
C[C@@H]1CN([C@H](C)CO)C(=O)c2cc(N(C)C)ccc2O[C@H]1CN(C)S(=O)(=O)c1cn(C)cn1	0.1	-0.8

(cont.)
SMILES	A1 inhib	BJeLR viability
C[C@@H]1CN([C@H](C)CO)C(=O)c2cc(NC(=O)NC3CCCCC3)ccc2O[C@@H]1CN(C)C	-0.3	-0.5
CNC[C@@H]1Oc2c(NC(=O)c3cnccn3)cccc2C(=O)N([C@@H](C)CO)C[C@H]1C	/	-2.5
C[C@H](CO)N1C[C@H](C)[C@@H](CN(C)C(=O)Nc2cccc3ccccc23)Oc2ccc(NS(=O)(=O)c3cccs3)cc2C1=O	0.5	1.4
C[C@@H]1CN([C@@H](C)CO)C(=O)c2cccc(NC(=O)c3ccncc3)c2O[C@@H]1CN(C)Cc1ccccc1	/	4.1
C[C@@H]1CN([C@@H](C)CO)C(=O)c2cccc(NC(=O)C3CCCCC3)c2O[C@@H]1CN(C)Cc1ccc(C(=O)O)cc1	/	-2.7
COc1ccc(-n2c(-c3ccc(C(C)(C)C)cc3)n[nH]c2=S)cc1	/	-3.1
COC(=O)C(Cc1c[nH]c2ccccc12)NS(=O)(=O)c1ccc(CNC(=O)c2ccccc2)s1 (stereo unspecified)	-0.4	0.4
CC(C)NC(=O)N(C)C[C@@H]1Oc2ccc(N(C)C)cc2C(=O)N([C@H](C)CO)C[C@H]1C	-0.6	-0.3
COc1ccc(S(=O)(=O)Nc2cccc3c2O[C@@H](CN(C)Cc2ccc4c(c2)OCO4)[C@@H](C)CN([C@H](C)CO)C3=O)cc1	/	4.8
C[C@H](CO)N1C[C@H](C)[C@H](CN(C)Cc2ccc(Cl)c(Cl)c2)Oc2ccc(NC(=O)Nc3cccc4ccccc34)cc2C1=O	0.6	1.0
CCc1c(O)cc(OC)c2c1O[C@H](C)CC2=O	-1.1	5.8
Cc1cc(-c2ccccc2)n2ncc(-c3ccccc3)c2n1	-2.3	4.6
O=c1cc(O)c2sc3nc(-c4ccccc4)ccc3c2[nH]1	0.3	3.3
COc1ccc(OC)c(S(=O)(=O)NC2CCN(Cc3ccccc3)CC2)c1	/	-5.3
CCC(C)[C@H](NC(=O)c1ccco1)C(=O)O (stereo partly specified)	0.8	1.1
Cc1[nH]c2ccccc2c1SCCNC(=O)/C=C/c1ccc2c(c1)OCO2	/	-2.1
C[C@@H]1CN([C@H](C)CO)C(=O)c2cc(NC(=O)C3CCCCC3)ccc2O[C@H]1CN(C)S(=O)(=O)c1ccc(Cl)cc1	0.1	0.0
COc1ccc(CN(C)C[C@H]2Oc3c(NC(=O)NC(C)C)cccc3C(=O)N([C@@H](C)CO)C[C@H]2C)cc1	/	-1.7
CC1=C(C)CC2C(=O)N(c3ccc(N(C)C)cc3)C(=O)C2C1 (stereo unspecified)	/	-0.3
Cc1noc(C)c1NC(=O)N(C)C[C@@H]1Oc2ccc(NS(=O)(=O)c3cccs3)cc2C(=O)N([C@@H](C)CO)C[C@@H]1C	0.3	3.0
COc1ccc(NC(=O)N(C)C[C@@H]2Oc3c(NS(=O)(=O)c4ccc(OC)cc4)cccc3C(=O)N([C@H](C)CO)C[C@H]2C)cc1	/	-3.6
C[C@@H]1CN([C@@H](C)CO)C(=O)c2cccc(NC(=O)Nc3ccc(F)cc3)c2O[C@@H]1CN(C)C	/	-4.2
O=C(Cn1sc2ccccc2c1=O)NCc1ccccc1	-1.3	3.9
C[C@@H]1CN([C@H](C)CO)C(=O)c2cc(NC(=O)Nc3ccc(F)cc3)ccc2O[C@H]1CN(C)C	1.1	-2.4
CC(=O)n1c(C)c(-c2ccccc2)c2cc(Cl)ccc21	0.9	2.1
C[C@@H]1CN([C@@H](C)CO)C(=O)c2cccc(NS(=O)(=O)c3cccs3)c2O[C@H]1CN(C)Cc1ccc(C(=O)O)cc1	/	1.2
Nc1ccc(S(=O)(=O)Nc2ccc(Cl)nn2)cc1	-0.5	-5.6
CC(C)C(=O)N1N=C(c2ccc(NS(C)(=O)=O)cc2)CC1c1ccccc1 (stereo unspecified)	/	-14
CCn1cc(C2=NC(C(C)C)CO2)c2ccccc21 (stereo unspecified)	0.1	5.5
C[C@H](CO)N1C[C@H](C)[C@H](CN(C)Cc2ccc3c(c2)OCO3)Oc2c(NC(=O)Nc3ccccc3)cccc2C1=O	/	2.4
C[C@H](CO)N1C[C@H](C)[C@@H](CN(C)Cc2ccc(Cl)c(Cl)c2)Oc2c(NC(=O)Nc3ccc(C(F)(F)F)cc3)cccc2C1=O	/	2.8
C[C@H](CO)N1C[C@H](C)[C@@H](CN(C)C(=O)Nc2ccc(F)cc2)Oc2c(NC(=O)C3CCCCC3)cccc2C1=O	/	-0.2
C[C@H](CO)N1C[C@H](C)[C@@H](CN(C)Cc2ccc3c(c2)OCO3)Oc2c(NC(=O)Nc3ccc(C(F)(F)F)cc3)cccc2C1=O	/	8.1
C[C@H](CO)N1C[C@H](C)[C@H](CN(C)Cc2ccncc2)Oc2ccc(NC(=O)Cc3ccccc3)cc2C1=O	0.6	4.5
C[C@@H]1CN([C@@H](C)CO)C(=O)c2cccc(NC(=O)C3CC3)c2O[C@H]1CN(C)CC1CC1	/	-2.6
Cc1cc(Oc2ccnc3cc(Cl)ccc23)ccc1Cl	0.0	-1.5
CC(=O)O[C@@H]1c2c(ccc3ccc(=O)oc23)OC(C)(C)[C@@H]1OC(=O)CC(C)C	-0.4	0.8
COc1ccc(S(=O)(=O)Nc2ccc3c(c2)C(=O)N([C@@H](C)CO)C[C@@H](C)[C@H](CN(C)S(=O)(=O)c2ccc(F)cc2)O3)cc1	-0.2	-0.4
C[C@H](CO)N1C[C@H](C)[C@@H](CN(C)Cc2ccc(Oc3ccccc3)cc2)Oc2ccc(NS(=O)(=O)c3cn(C)cn3)cc2C1=O	-0.2	-3.2
C[C@@H]1CN([C@H](C)CO)C(=O)c2cc(NC(=O)NC3CCCCC3)ccc2O[C@H]1CN(C)S(=O)(=O)c1ccc(F)cc1	1.1	2.3

Arranged by heavy-atom count (high to low): part of the list above.
SMILES	A1 inhib	BJeLR viability
COc1ccc(CN(C)C[C@H]2Oc3c(NC(=O)NC(C)C)cccc3C(=O)N([C@@H](C)CO)C[C@H]2C)cc1	/	-1.7
COc1ccc(Cl)c(OC)c1C(=O)NC(=O)Nc1c(C)cccc1C	-0.5	-1.4
C=C(C(=O)O)[C@H]1C=C2[C@@H](C)[C@@H](O)[C@H](O)C[C@]2(C)CC1	0.3	0.3
CCc1c(O)cc(OC)c2c1O[C@H](C)CC2=O	-1.1	5.8

Continuation.
SMILES	A1 inhib	BJeLR viability
COc1ccc(S(=O)(=O)Nc2ccc3c(c2)C(=O)N([C@@H](C)CO)C[C@H](C)[C@H](CN(C)Cc2ccc(C(=O)O)cc2)O3)cc1	0.6	1.8
CCC(Sc1nc2ccccc2c2nc(C)nn12)C(=O)Nc1cc(OC)ccc1OC (stereo unspecified)	0.2	0.1
C[C@H]1CN([C@@H](C)CO)C(=O)c2cccc(NS(=O)(=O)c3ccccc3)c2O[C@@H]1CN(C)S(=O)(=O)c1cn(C)cn1	/	2.1
NC(=O)CSc1ncnc2c1nnn2Cc1ccc(F)cc1	-2.2	-0.1
C[C@@H]1CN([C@@H](C)CO)C(=O)c2cc(NC(=O)CCC(F)(F)F)ccc2O[C@H]1CN(C)Cc1ccc2c(c1)OCO2	0.0	-1.5
Nc1ncnc2c1ncn2CCOc1ccccc1	/	0.8
C[C@@H]1CN([C@@H](C)CO)C(=O)c2cc(NC(=O)CCCCCC(=O)Nc3ccccc3N)ccc2O[C@@H]1CN(C)Cc1ccc(-c2ccccc2)cc1	/	-0.4
C[C@@H]1CN([C@@H](C)CO)C(=O)c2cc(NC(=O)Cc3cn(C)c4ccccc34)ccc2O[C@@H]1CN(C)CC1CCCCC1	-0.3	-3.3
CCOC(=O)c1oc2c(c1C)C(=O)CC(C)(C)C2	-0.4	-2.7
CCOC(=O)N1CCN(Cc2cc(=O)oc3ccc(OC)cc23)CC1	-0.3	-1.6
Cc1ccc(-n2cc(-c3ccccc3)c3c(NCc4ccccc4)ncnc32)cc1	0.2	-8.9
C[C@@H]1O[C@@H](O[C@@H]2[C@@H](O)[C@H](C)O[C@@H](OC[C@H]3O[C@@H](Oc4c(-c5ccc(O)cc5)oc5cc(O)cc(O)c5c4=O)[C@H](O)[C@@H](O)[C@H]3O)[C@@H]2O)[C@H](O)[C@H](O)[C@H]1O	1.0	-4.6
O=C(NCCN1C(=O)C2C3C=CC(C3)C2C1=O)N1CCCCC1 (stereo unspecified)	1.5	-3.0
COC(=O)c1c(C)cc2c(c(C)c1=O)OC1(C2)C(C)CCC2C(C)(C)OC(=O)C=CC21C (stereo unspecified)	-0.2	-18
C[C@@H]1CN([C@H](C)CO)C(=O)c2cccc(NC(=O)c3nc4ccccc4s3)c2O[C@H]1CN(C)S(=O)(=O)c1cccs1	/	-3.8
O=C1CCC(O)c2cccc(O)c21 (stereo unspecified)	-0.7	-7.0
Cn1c(=Nc2ccccc2C(=O)O)ccc2ccccc21	-1.6	3.4
CC(=O)Nc1ccc(S(=O)(=O)NC2=NCN(CCOC(=O)c3ccccc3)CN2)cc1	0.0	0.4
Cc1ccc(C(=O)N2CCc3ccccc3C2)cc1	-3.0	1.6
O=C(O)CN1C(=O)c2cc(Cl)c(Cl)cc2C1=O	0.3	0.5

The list goes on, overlapping the part above by two compounds.
SMILES	A1 inhib	BJeLR viability
Cc1ccc(C(=O)N2CCc3ccccc3C2)cc1	-3.0	1.6
O=C(O)CN1C(=O)c2cc(Cl)c(Cl)cc2C1=O	0.3	0.5
c1ccc(CSc2ncnc3c2nnn3Cc2ccccc2)cc1	-0.3	-5.5
C[C@@H]1CN([C@H](C)CO)C(=O)c2cccc(NC(=O)Nc3ccccc3)c2O[C@@H]1CN(C)Cc1ccc(Cl)c(Cl)c1	/	-2.3
Cc1ccc(S(=O)(=O)Nc2ccc3c(c2)C(=O)N([C@H](C)CO)C[C@@H](C)[C@@H](CN(C)C(=O)Nc2ccc(C(F)(F)F)cc2)O3)cc1	-0.1	-3.1
N#Cc1ccc(C#CCOC(=O)Nc2ccc(OC(F)(F)F)cc2)cc1	-0.5	6.1
CC1(C)OC(=O)C(=Cc2ccc[nH]2)C(=O)O1	0.6	-8.2
Cc1noc(C)c1NC(=O)Nc1ccc2c(c1)C(=O)N([C@H](C)CO)C[C@@H](C)[C@@H](CN(C)C(=O)NC1CCCCC1)O2	0.1	1.2
CC(C)(C)C(=O)OCOC(=O)[C@@H]1N2C(=O)[C@@H](N=CN3CCCCCC3)[C@H]2SC1(C)C	-0.5	0.2
